Yeast life ext = compounds extending yeast replicative lifespan, primary screen, S. cerevisiae, OD615. S. cerevisiae growth with nicotinamide; deaD strain in restrictive glucose medium. inhibition of the nicotinamide effect, % at 10 µM. actives 0.68% (n = 130,000). AID 775, 2007;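 active = inhibition above a set limit, placed 3 SD over the median of all compounds, cut at about 26% in these data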;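 note: 0% = nicotinamide-treated wells and 100% = cells grown without nicotinamide; some compounds called inactive have numbers as strong as hits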
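Assay system: engineered S. cerevisiae DeaD replicative-lifespan strain, galactose-grown log-phase cells; medium: restrictive CSMM-D dextrose medium; also added: nicotinamide, 1.5 mM, co-present with compound; schedule: 48 h compound exposure at 30 °C, humidified; detection: absorbance at 615 nm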
Phagocyt inh = inhibitors of macrophage phagocytosis, primary screen, imaging, J774A.1 cells, IgG beads. J774A.1 macrophage IgG-bead phagocytosis. AID 1029, 2008. actives 0.07% (n = 110,000). inhibition, % at 5 µM;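 active = inhibition above the mean of the plate negative controls plus 5 SD, cut at about 13% in these data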;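 note: phagocytic index as fraction of beads internalized from green versus red external bead signal; plate controls were DMSO negative control for no effect and cytochalasin-D positive control for full effect; some results beyond the cut were filed as inactive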
BB579 growth dn = growth inhibitors of yeast BB579 in restrictive medium, primary screen, yeast lifespan-shortening project, S. cerevisiae; inhibition, % at 10 µM; OD615, 48 h; actives 0.51% (n = 140,000);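 active = inhibition above a set limit, 3 SD over the mean compound inhibition, cut at about 44% in these data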; note: inactives centre near -24
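System: DeaD yeast strain BB579; buffer or medium: CSMM-D dextrose restrictive medium; technique: OD at 615 nm; schedule: 4 h cell preincubation, 48 h compound exposure, 30 °C humidified; doses: single 10 µM dose; controls: amphotericin B 10 µg/mL, positive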
Measles CPE = compounds protecting cells from measles virus cytopathic effect, primary screen, measles RdRp inhibitor project, single point, MLSMR library, absorbance | Measles virus-infected cells, CPE protection | actives 1.5% (n = 140,000) | protection (pct of control), % at 4 µM; in the data active = protection mostly above about 24%, no sharp cut-off; inactive = mostly below about 26%; note: some compounds called inactive have numbers as strong as hits
GALR2 antag = GALR2 antagonists in receptor-expressing cells, primary screen. antagonist mode. actives 0.39% (n = 140,000). inhibition, % at 4 µM. AID 828, 2007. Galanin receptor type 2 (Homo sapiens), O43603; in the data active = inhibition above about 27%;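 note: cells stimulated with galanin 1-16 at roughly its EC80; 0% = agonist challenge control and 100% = basal control without agonist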
Target sequence (O43603 whole entry, looked up): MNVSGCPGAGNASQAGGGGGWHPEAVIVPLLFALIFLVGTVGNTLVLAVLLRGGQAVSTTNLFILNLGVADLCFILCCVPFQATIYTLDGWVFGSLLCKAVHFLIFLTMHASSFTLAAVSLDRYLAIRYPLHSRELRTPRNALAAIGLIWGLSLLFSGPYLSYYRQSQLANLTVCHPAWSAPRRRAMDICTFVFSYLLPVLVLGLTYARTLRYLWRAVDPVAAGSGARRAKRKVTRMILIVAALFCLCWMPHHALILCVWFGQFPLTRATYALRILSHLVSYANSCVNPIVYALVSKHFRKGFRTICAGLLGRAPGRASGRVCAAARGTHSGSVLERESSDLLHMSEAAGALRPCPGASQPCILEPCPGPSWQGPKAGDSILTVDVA
MRP1 act = H69AR viability gain despite doxorubicin, primary screen, MRP-1 activator project, H69AR cells, CellTiter-Glo. viability increase, % at 10 µM. viability rescue. AID 799, 2007. actives 0.61% (n = 140,000);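 active = viability gain under doxorubicin at or above a set limit, the compound median plus 3 SD, cut at about 4.7% in these data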;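 note: MRP-1 overexpressing cells given doxorubicin 25 µM after compound pretreatment; 18-22 h compound pretreatment then 72 h with doxorubicin before readout; 0% = doxorubicin-only wells and 100% = vehicle-treated cells without doxorubicin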
Active calls of the source: *; . = not tested or not shown; & = joins results of further samples. An excerpt (hit frequency here may not be typical).

SMILES | Yeast life ext | Phagocyt inh | BB579 growth dn | Measles CPE | GALR2 antag | MRP1 act
Cc1ncc([N+](=O)[O-])n1CC(=O)NC1CCCC1 | -6 | 0 | -82 | 8 | 4 | -0.5
Cc1ccc(N2CC(C(=O)OCc3ccccc3F)CC2=O)cc1 (stereo not given) | -21 | -1 | -49 | 11 | 1 | -0.1
COC(=O)c1ccc2c(c1)C(C)(C)C(/C=C/c1ccc(O)cc1)=[N+]2C | -5 | 2 | -41 | -2 | 25 | -2.4
CC(Sc1nc2ccccc2o1)C(=O)O (stereo not given) | -18 | 0 | 2 | 7 | 7 | 1.9
Clc1ccc(Cn2cc(Br)cn2)cc1Cl | -8 | -4 | 8 | 9 | -6 | -2.1
O=S(=O)(c1ccccc1)c1nc(-c2cccs2)oc1NCC1CCCO1 (stereo not given) | -7 | 0 | -2 | 22 | -3 | 1.3
CC(C)c1cc(C(=O)Nc2ccc3c(c2)OCO3)no1 | -14 | 0 | -40 | 26 | 11 | -3.5
CCCCC(=O)Nc1ccc(F)c(Cl)c1 | -13 | 0 | -28 | 2 | -3 | -0.6
Cn1c(-c2ccc(CN3CCCCC3)o2)nc2ccccc21 | -16 | 3 | -14 | 4 | -2 | -2.9
C1CCC2=NCCCN2CC1 | -9 | 0 | -44 | 6 | -14 | -1.1

Some of the entries above, set out differently.
Molecule	Yeast life ext	Phagocyt inh	BB579 growth dn	Measles CPE	GALR2 antag	MRP1 act
Cn1c(-c2ccc(CN3CCCCC3)o2)nc2ccccc21	-16	3	-14	4	-2	-2.9
C1CCC2=NCCCN2CC1	-9	0	-44	6	-14	-1.1

(more compounds)
SMILES | Yeast life ext | Phagocyt inh | BB579 growth dn | Measles CPE | GALR2 antag | MRP1 act
Cc1cc(N2CCCCC2)c(F)cc1[N+](=O)[O-] | -2 | -1 | 15 | 6 | -4 | -0.4
COc1cc2c(cc1OC)CN(C(=O)CCCN1C(=O)c3ccccc3C1=O)CC2 | -15 | 0 | -24 | 11 | -2 | -0.3
Cc1cnc(NC(=O)CN2C(=O)C3CC=CCC3C2=O)s1 (stereo not given) | -8 | 0 | 0 | 36 | 3 | -0.6
COc1cccc2c1C(=O)c1c(O)c3c(c(O)c1C2=O)C[C@@](O)(C(=O)CO)C[C@@H]3O[C@H]1C[C@H](N)[C@H](O)[C@H](C)O1 | -2 | . | 28 | 9 | 11 | -3.6
CCc1nc(C)ccc1OCC(=O)NCCCN(C)C | -4 | 0 | 8 | 2 | 5 | 0.7
Nc1ccc(C(=O)O)c(O)c1 | 1&13 | . | -30&-52 | 16&12 | -2&9 | 1.8&0.2
COc1cccc(CNc2nn[nH]n2)c1OC | -6 | 0 | 15 | 17 | 5 | -0.2
CN1CCN(CCCN2c3ccccc3Sc3ccc(C(F)(F)F)cc32)CC1 | -4 | . | -19 | 13 | 2 | -3.8
CCOC(=O)C1CCN(C(=O)CCc2nc3ccccc3[nH]2)CC1 | -10 | -1 | -33 | 17 | 8 | -0.5
Clc1ccc(OCc2nn3c(C4CCCCC4)nnc3s2)c(Cl)c1 | -6 | -1 | -75 | 7 | -5 | 0.2
Cc1cn(C2C=CC(CO)O2)c(=O)[nH]c1=O (stereo not given) | . | . | -29 | 9 | -1 | -0.3
Cc1nn(C)c(C)c1NC(=O)c1ccc(S(=O)(=O)N(C)C)cc1 | -3 | 0 | -25 | 9 | 2 | -1.4
Oc1c(Cl)cc(Cl)c(Cl)c1Cc1c(O)c(Cl)cc(Cl)c1Cl | 6 | . | 71* | 31 | -2 | -2.9
CCN1CCN(c2cc3c(cc2F)c(=O)c(C(=O)O)cn3C2CC2)CC1 | 7 | . | -28 | 23 | 1 | -0.5
CCCC(=O)Nc1ncnc2c1ncn2[C@@H]1O[C@@H]2COP(=O)(O)O[C@H]2[C@H]1OC(=O)CCC | 0 | . | -4 | 2 | -1 | -0.5
CCCCNC(=O)NS(=O)(=O)c1ccc(C(=O)OC)o1 | -8 | 1 | -34 | 3 | 13 | -0.5

15 entries already listed, arranged by formula weight, falling:
SMILES | Yeast life ext | Phagocyt inh | BB579 growth dn | Measles CPE | GALR2 antag | MRP1 act
CCCC(=O)Nc1ncnc2c1ncn2[C@@H]1O[C@@H]2COP(=O)(O)O[C@H]2[C@H]1OC(=O)CCC | 0 | . | -4 | 2 | -1 | -0.5
CN1CCN(CCCN2c3ccccc3Sc3ccc(C(F)(F)F)cc32)CC1 | -4 | . | -19 | 13 | 2 | -3.8
Oc1c(Cl)cc(Cl)c(Cl)c1Cc1c(O)c(Cl)cc(Cl)c1Cl | 6 | . | 71* | 31 | -2 | -2.9
Clc1ccc(OCc2nn3c(C4CCCCC4)nnc3s2)c(Cl)c1 | -6 | -1 | -75 | 7 | -5 | 0.2
CCN1CCN(c2cc3c(cc2F)c(=O)c(C(=O)O)cn3C2CC2)CC1 | 7 | . | -28 | 23 | 1 | -0.5
Cc1nn(C)c(C)c1NC(=O)c1ccc(S(=O)(=O)N(C)C)cc1 | -3 | 0 | -25 | 9 | 2 | -1.4
CCOC(=O)C1CCN(C(=O)CCc2nc3ccccc3[nH]2)CC1 | -10 | -1 | -33 | 17 | 8 | -0.5
Cc1cnc(NC(=O)CN2C(=O)C3CC=CCC3C2=O)s1 (stereo not given) | -8 | 0 | 0 | 36 | 3 | -0.6
CCCCNC(=O)NS(=O)(=O)c1ccc(C(=O)OC)o1 | -8 | 1 | -34 | 3 | 13 | -0.5
Cn1c(-c2ccc(CN3CCCCC3)o2)nc2ccccc21 | -16 | 3 | -14 | 4 | -2 | -2.9
Cc1cc(N2CCCCC2)c(F)cc1[N+](=O)[O-] | -2 | -1 | 15 | 6 | -4 | -0.4
COc1cccc(CNc2nn[nH]n2)c1OC | -6 | 0 | 15 | 17 | 5 | -0.2
Cc1cn(C2C=CC(CO)O2)c(=O)[nH]c1=O (stereo not given) | . | . | -29 | 9 | -1 | -0.3
Nc1ccc(C(=O)O)c(O)c1 | 1&13 | . | -30&-52 | 16&12 | -2&9 | 1.8&0.2
C1CCC2=NCCCN2CC1 | -9 | 0 | -44 | 6 | -14 | -1.1

Bioassay records (PubChem BioAssay)
